Screens: PubChem, Broad Institute
rRNA inh HTS = reduced GFP signal of wild-type E. coli, primary screen, bacterial rRNA inhibitor project, GFP/RFP fluorescence, OD600, single point; E. coli WT GFP vs humanized-ribosome RFP mutants, 24 h; stronger effect = lower value; DMSO median 0, no signal -100; GFP signal change (wild-type ribosome), % (no concentration beside the values); 350,000 tested, 1.6% active;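 active means significant combined selectivity score with lowered wild-type GFP, culture density cut under 30%, mutant RFP and density less affected; inactive means any of these conditions unmet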; further: one replicate is shown; some compounds called inactive have numbers as strong as hits
rRNA inh HTS OD600 = further read-out of rRNA inh HTS, marked with its call; OD600 change, %; measured here: OD600 growth;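 optical density of the mix in the first replicate; 0 = DMSO median and -100 = no signal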
rRNA inh HTS RFP = further read-out of rRNA inh HTS, marked with its call; RFP signal change, %; measured here: RFP humanized mutant strains;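 first replicate; 0 = DMSO median and -100 = no signal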
Starred values were filed as active, the others as inactive; & = joins results of further samples. An excerpt; rates above refer to the full screens.

SMILES	rRNA inh HTS	rRNA inh HTS OD600	rRNA inh HTS RFP
O=C(Nc1cccc(F)c1)N1CCCCN2[C@H](C1)[C@@H](c1ccc(C#Cc3ccccc3)cc1)[C@@H]2CO	4	18	-1.1
C[C@H](CO)N1C[C@H](C)[C@H](CN(C)C(=O)c2cc(-c3ccccc3)on2)OCc2cn(nn2)CCCC1=O	0	0	-3.2
C[C@@H]1CN([C@@H](C)CO)C(=O)c2cc(NC(=O)Nc3ccccc3)ccc2O[C@@H]1CN(C)C(=O)Nc1ccc2c(c1)OCO2	-1	-16	-2.9
COCc1cc(N2CCNC[C@H]2C)ccc1N1CCS(=O)(=O)CC1	11	7	-0.6
COC(=O)C[C@@H]1CC[C@H]2[C@@H](COC[C@H](O)CN2S(=O)(=O)c2ccc(F)cc2)O1	5	-1	1.4
O=C(C[C@@H]1CC[C@H]2[C@@H](COC[C@@H](O)CN2C(=O)c2ccc3c(c2)OCO3)O1)NC1CCCC1	8	23	-2.8
O=C(C[C@H]1C[C@@H]2c3cc(NS(=O)(=O)c4ccc(F)cc4)ccc3O[C@@H]2[C@H](CO)O1)NCc1ccc(-c2ccccc2)cc1	1	-12	21
C[C@H]1CN([C@@H](C)CO)C(=O)Cc2cc(NC(=O)NC3CCCCC3)ccc2O[C@H]1CN(C)S(=O)(=O)c1ccccc1	2	-1	1.0
COc1ccc(C(O)c2nc(/C=C/c3ccc(C(F)(F)F)cc3)cs2)cc1 (stereo unspecified)	-8	-6	-0.7
COc1cccc(-c2ccc([C@H]3[C@H]4CNCC(=O)N4[C@H]3CO)cc2)c1	4	7	-2.8
C[C@@H](NC(=O)N(C)C[C@H]1OCc2ccccc2-c2c(n(C)c3ccccc23)C(=O)N([C@@H](C)CO)C[C@@H]1C)c1ccccc1	-12	-2	2.2
COc1ccc(C#Cc2ccc([C@H]3[C@H]4CN(Cc5ccncc5)CCCCN4[C@H]3CO)cc2)cc1	-61	-73	-9.6
CC1CCc2sc(C(=O)NN=C3CCCC3)cc2C1 (stereo unspecified)	0	-3	-2.5
O=C(NCC[C@@H]1CC[C@H](NS(=O)(=O)c2ccc(Cl)cc2)[C@H](CO)O1)c1ccccc1F	-1	-1	-1.5
CON(Cc1ccccc1)S(=O)(=O)c1ccccc1Br	-8	-42	-13
C[C@@H]1CN([C@@H](C)CO)C(=O)c2cc(NS(=O)(=O)c3cccs3)ccc2O[C@H]1CN(C)Cc1ccc2c(c1)OCO2	1	1	1.0
COc1ccc2c3c(n(C)c2c1)[C@@H](CO)N(C(=O)CN1CCOCC1)CC31CN(C)C1	3	4	-2.5
O=C(C[C@H]1C[C@@H]2c3cc(NC(=O)Nc4ccc(C(F)(F)F)cc4)ccc3O[C@@H]2[C@H](CO)O1)NCc1ccc2c(c1)OCO2	-8	-6	-0.1
COC(=O)C[C@H]1CC[C@H]2[C@H](COc3ccc(NS(=O)(=O)c4ccc(F)cc4)cc3C(=O)N2C)O1	-1	-5	-0.9
CCCNC(=O)C[C@@H]1CC[C@@H]2[C@H](COc3ccc(NC(=O)NC(C)C)cc3C(=O)N2C)O1	3	1	0.6

Profiles as entered above.
Entry for C[C@@H]1CN([C@@H](C)CO)C(=O)c2cc(NS(=O)(=O)c3cccs3)ccc2O[C@H]1CN(C)Cc1ccc2c(c1)OCO2 → rRNA inh HTS: 1; rRNA inh HTS OD600: 1; rRNA inh HTS RFP: 1.0
Entry for C[C@H](CO)N1C[C@H](C)[C@H](CN(C)C(=O)c2cc(-c3ccccc3)on2)OCc2cn(nn2)CCCC1=O → rRNA inh HTS: 0; rRNA inh HTS OD600: 0; rRNA inh HTS RFP: -3.2
Entry for CC1CCc2sc(C(=O)NN=C3CCCC3)cc2C1 (stereo unspecified) → rRNA inh HTS: 0; rRNA inh HTS OD600: -3; rRNA inh HTS RFP: -2.5

Reformatted as comma-separated lines: entries from further up.
mol,rRNA inh HTS,rRNA inh HTS OD600,rRNA inh HTS RFP
COCc1cc(N2CCNC[C@H]2C)ccc1N1CCS(=O)(=O)CC1,11,7,-0.6
COC(=O)C[C@@H]1CC[C@H]2[C@@H](COC[C@H](O)CN2S(=O)(=O)c2ccc(F)cc2)O1,5,-1,1.4
O=C(C[C@@H]1CC[C@H]2[C@@H](COC[C@@H](O)CN2C(=O)c2ccc3c(c2)OCO3)O1)NC1CCCC1,8,23,-2.8

Continuation:
SMILES	rRNA inh HTS	rRNA inh HTS OD600	rRNA inh HTS RFP
COc1ccc2c(c1)CCCO[C@]21O[C@H](CCO)C[C@H](O)[C@H]1O	3	4	1.4
CO[C@@H](CN(C)Cc1cc(F)ccc1F)[C@@H](C)CN([C@H](C)CO)S(=O)(=O)c1ccc(C)cc1	-8	-20	0.4
CCOC(=O)CN1C(=O)N(c2ccc(OC)cc2)[C@H]2CC3c4ccccc4C[C@]3(C)[C@@H](C(=O)N(C)C3CCCCC3)C[C@H]21 (stereo partly specified)	17	17	2.8
CC(C)NC(=O)N(C)C[C@@H]1OCCCC[C@H](C)Oc2ccc(NC(=O)Cc3ccccc3)cc2C(=O)N([C@H](C)CO)C[C@@H]1C	0	-9	-1.4
Cc1cccc(-c2ccc([C@@H]3[C@@H](CO)N4C(=O)CN(C(=O)Cc5ccccn5)C[C@H]34)cc2)c1	1	10	-1.0
C[C@@H]1CCCCO[C@H](CN(C)S(C)(=O)=O)[C@@H](C)CN([C@H](C)CO)C(=O)c2cc(NS(C)(=O)=O)ccc2O1	1	11	-2.7
C[C@H]1CN([C@@H](C)CO)C(=O)c2cc(C#Cc3ccncc3)cnc2O[C@@H]1CN(C)CC1CCCCC1	1	8	-0.3
COc1ccccc1NC(=O)N1CCCCN2[C@H](C1)[C@@H](c1ccc(C#CC3CCCC3)cc1)[C@@H]2CO	6	5	9.4
CO[C@@H]1CN(C)C(=O)c2ccc(NC(=O)Nc3ccccc3F)cc2OC[C@@H](C)N(C(C)=O)C[C@@H]1C	-2	-10	5.9
C[C@@H]1CN([C@H](C)CO)C(=O)c2cc(NC(=O)Nc3cccc4ccccc34)ccc2O[C@@H](C)CCCCO[C@@H]1CN(C)S(=O)(=O)c1ccc(Cl)cc1	-9	-5	-3.7
C[C@@H]1CN([C@@H](C)CO)C(=O)Cc2cc(NS(=O)(=O)c3ccc(F)cc3)ccc2O[C@@H]1CN(C)Cc1ccc2c(c1)OCO2	-5	0	0.1
OC[C@@H]1CN(Cc2cccs2)C[C@H](n2cnc3c(NCc4ccco4)ncnc32)O1	7	21	-0.2
C[C@@H]1CN([C@H](C)CO)C(=O)CCCn2nncc2CO[C@H]1CN(C)C(=O)Nc1cccc(C(F)(F)F)c1	-53	-61	2.3
O=C(N[C@H](C(=O)N1CCC[C@H]1C(=O)NC1CCCC1)c1ccccc1)C1CCCC1	3	6	0.5
COc1ccc(-c2cnc3c(c2)C(=O)N([C@@H](C)CO)C[C@@H](C)[C@@H](CN(C)Cc2ccccn2)O3)cc1	-3	-1	0.9
COc1ccc(NC(=O)N(C)C[C@@H]2Oc3ccc(NS(=O)(=O)c4cccs4)cc3CC(=O)N([C@@H](C)CO)C[C@@H]2C)cc1	4	9	-1.1
CCN(C)C1CN(Cc2cn(Cc3cccc(Cl)c3)nn2)S(=O)(=O)C1 (stereo unspecified)	12	7	1.8
C[C@H]1CN([C@@H](C)CO)C(=O)Cc2cc(NC(=O)CCC(F)(F)F)ccc2O[C@H]1CN(C)S(=O)(=O)c1cccs1	-2	-3	-2.3
CN(C)C(=O)C[C@@H]1CC[C@H](NC(=O)NC2CCCCC2)[C@H](CO)O1	4	-7	-0.3
C[C@@H]1CN([C@@H](C)CO)C(=O)c2cc(NC(=O)Nc3ccc(F)cc3)ccc2O[C@@H]1CN(C)S(=O)(=O)c1cccs1	1	-16	-3.8
COc1ccc2c3c([nH]c2c1)[C@@H](CO)NCC31CN(C(=O)C2CCCC2)C1	-1	12	1.7
C[C@H](CO)N1C[C@H](C)[C@H](CN(C)S(=O)(=O)c2cn(C)cn2)Oc2ccc(NS(C)(=O)=O)cc2C1=O	5	6	-2.9
Cc1ccccc1S(=O)(=O)N1C[C@@H](O)COC[C@H]2O[C@H](CC(=O)O)CC[C@@H]21	-2	-7	-0.4
COc1cccc(-c2ccc([C@@H]3[C@H]4CNCC(=O)N4[C@H]3CO)cc2)c1	2	10	-2.4
CCCC#Cc1ccc2c(c1)O[C@H](CN(C)Cc1ccccn1)[C@@H](C)CN([C@@H](C)CO)S2(=O)=O	-49	-56	-0.1
COc1ccccc1-c1ccc2n(c1=O)C[C@@H]1[C@@H](CO)[C@H](C(=O)NCC3CC3)N(S(C)(=O)=O)[C@H]21	-1	5	-0.6
Cc1noc(C)c1NC(=O)N(C)C[C@@H]1Oc2ncc(C#CC3CCCCC3)cc2C(=O)N([C@H](C)CO)C[C@@H]1C	3	-7	2.2
O=C(C[C@@H]1C[C@H]2c3cc(NC(=O)NC4CCCCC4)ccc3O[C@H]2[C@H](CO)O1)NCc1ccncc1	2	3	0.6
COc1ccc(CN(C)C[C@@H]2OCCCC[C@@H](C)Oc3ccc(NC(=O)CCCN(C)C)cc3C(=O)N([C@H](C)CO)C[C@@H]2C)cc1	8	15	-0.5
C[C@@H]1CN([C@@H](C)CO)C(=O)c2cc(NS(=O)(=O)c3cccs3)ccc2O[C@H]1CN(C)Cc1ccc(C(=O)O)cc1	0	2	0.1
COc1ccccc1C(=O)Nc1ccc2c(c1)OC[C@H](C)NC[C@@H](C)[C@H](OC)CN(C)C2=O	2	5	-1.5
CCCC#Cc1ccc2c(c1)O[C@H](CN(C)Cc1ccccc1)[C@@H](C)CN([C@H](C)CO)S2(=O)=O	-2	10	2.5
C[C@H](CO)N1C[C@H](C)[C@@H](CN(C)C(=O)c2ccncc2)OCCCC[C@H](C)Oc2ccc(NS(=O)(=O)c3cccs3)cc2C1=O	2	0	-1.1
C[C@@H]1CN([C@H](C)CO)S(=O)(=O)c2ccc(/C=C/c3ccccc3)cc2O[C@@H]1CN(C)Cc1cncnc1	-26	-49	30
CN1C(=O)c2cc(NC(=O)c3cc(F)cc(F)c3)ccc2OC[C@H]2O[C@H](CC(=O)O)CC[C@@H]21	2	-1	0.5
CNC(=O)C[C@@H]1CC[C@H]2[C@H](COc3ccc(NC(=O)Nc4cc(C)cc(C)c4)cc3C(=O)N2C)O1	-3	-7	0.6
CO[C@@H](CN(C)S(=O)(=O)c1ccc(C)cc1)[C@H](C)CN(Cc1ccccc1Cl)[C@@H](C)CO	-5	-3	-0.7
Cc1ccccc1-c1ccc([C@H]2[C@@H](CO)N3CCCCN(C(=O)Nc4cccc(F)c4)C[C@@H]23)cc1	4	-14	12
C[C@H]1CCCCO[C@@H](CN(C)C(=O)NC2CCCCC2)[C@@H](C)CN([C@@H](C)CO)C(=O)c2cc(NC(=O)Nc3ccc(F)cc3)ccc2O1	1	5	-0.8
CCC(=O)N1CC2(CN(C(C)=O)C2)c2c([nH]c3cc(OC)ccc23)[C@@H]1CO	5	16	1.0
CC(C)Cc1ccc(CN2C(C)C(=O)N(Cc3cn(Cc4ccco4)nn3)CCS2(=O)=O)cc1 (stereo unspecified)	5	11	-1.9
O=C(Nc1ccc(F)cc1)N[C@@H]1C=C[C@H](CC(=O)N2CCOCC2)O[C@@H]1CO	2	8	-1.2
CCCN1C[C@@H](C)[C@@H](OC)CN(C)C(=O)c2ccc(NC(=O)C3CC3)cc2OC[C@@H]1C	1	3	-2.1
CNC[C@@H]1Oc2ccc(NC(=O)C3CCCCC3)cc2CC(=O)N([C@H](C)CO)C[C@@H]1C	2	1	-1.1
O=C(Cc1ccncc1)NCC[C@H]1CC[C@H](NC(=O)C2CCC2)[C@@H](CO)O1	1	-2	-0.6
CO[C@@H]1CN(C)C(=O)c2cc(NC(=O)NC3CCCCC3)ccc2OC[C@H](C)N(CC2CCOCC2)C[C@H]1C	-3	-13	-3.3
COc1ccc2c3c(n(C)c2c1)[C@@H](CO)N(Cc1ccncc1)CC31CN(C(=O)Cc2ccncc2)C1	-2	5	-1.5
COc1ccc(NC(=O)N(C)C[C@@H]2OCCCC[C@H](C)Oc3ccc(N(C)C)cc3C(=O)N([C@H](C)CO)C[C@@H]2C)cc1	-2	2	-2.2
COc1ccccc1CCn1cnc(-c2ccc(F)cc2)c1CC(C)C	-52	-78	-17
CC1(Oc2ccc(Cl)cc2)CCN(Cc2ccc(OC(F)(F)F)cc2)C1 (stereo unspecified)	-18	-17	6.0
CC(C)NC(=O)N(C)C[C@@H]1Oc2cc(C#Cc3cccc(F)c3)ccc2S(=O)(=O)N([C@H](C)CO)C[C@H]1C	-1	-47	24
COc1ccc(NC(=O)N[C@@H]2CC[C@H](CCNC(=O)c3cc(Cl)cc(Cl)c3)O[C@@H]2CO)cc1	-8	-18	7.7
COC(=O)C[C@H]1CC[C@H](NC(=O)Nc2ccc(C(F)(F)F)cc2)[C@H](CO)O1	4	7	-0.7
Cc1cc(NC(=O)COC(=O)COc2ccc(Cl)c(C)c2)no1	4	8	-0.1
C[C@H]1CN([C@@H](C)CO)C(=O)c2cc(NC(=O)NC3CCCCC3)ccc2O[C@@H]1CN(C)C(=O)Nc1ccc2c(c1)OCO2	1	-3	-3.2
COC(=O)N(C)C[C@@H]1OCc2cnnn2CCCC(=O)N([C@@H](C)CO)C[C@@H]1C	-3&1	-1&1	-1.0&-2.2
